Bioassay records (PubChem)
Sa RN4220 lethal = S. aureus RN4220 growth inhibition | OD600, 16 h | inhibition, % (test concentration not listed) | 0.33% of 330,000 active;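 active = z-score of -3 or lower and OD600 up to 0.18 on both plates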;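 also: plate controls were untreated cells for no effect and reference antibiotic for full effect; stock transfer was 100 nL into about 80 µL; one replicate is shown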
Mtb hypoxia inh = reduces hypoxia-regulated biosensor signal in M. tuberculosis; 0.1% of 300,000 active; AID 1159583; M. tuberculosis hypoxia-regulated fluorescent reporter, fluorescence; fluorescence inhibition, % (concentration not given with the values);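 active = 35 to 45% if threefold the growth effect, above 45% if 1.5-fold the growth effect; inactive = the rest, general growth blockers included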;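 also: wells of about 50 µL received 100 nL stock; 0% = vehicle wells and 100% = reference inhibitor wells; whole bacteria with a GFP reporter of the hypoxia response; strong numbers were not always called active; many hits fall short of the cut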
Autofluor counter = flagged as autofluorescent in microsphere protease counterscreen | compound autofluorescence counterscreen, microsphere flow cytometry; active compounds read high | 3.1% of 360,000 active | AID 624483 | fluorescence intensity (test concentration not listed);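 active = at least 3 SD above the mean of all compounds, about 16000 in these data; inconclusive = too few beads counted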;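 also: 100 nL of 1 mM stock went into each well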
ugtP null kill = kills S. aureus RN4220 lacking UgtP; S. aureus RN4220 ugtP deletion, OD600 growth, 16 h; some inactives read as strong as hits; growth inhibition, % (no concentration beside the values); 0.54% of 330,000 active; AID 1259309;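 active = z-score under -3 and OD600 up to 0.15 on both plates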;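 also: plate controls were untreated wells for no effect and antibiotic for full effect; wells of about 80 µL received 100 nL stock; the first replicate is given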
PrP UTR inh = suppresses PrP 5' UTR mRNA reporter expression; 0.35% of 340,000 active; inhibition, % (no concentration beside the values); cell-based PrP 5' UTR mRNA reporter, plate reader; AID 488862;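 active = every replicate at 50% or more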;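 also: 0 = median of the neutral control wells; tested in H4 reporter cells; numbers are from one replicate; inactives centre near -14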
BJeLR viability = BJeLR cell viability loss. BJeLR (HRASV12) viability, CellTiter-Glo ATP luminescence, 48 h; reference of the scale not given here. inhibition, % (no concentration beside the values). 0.17% of 300,000 active. AID 1554;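 active = replicate mean above 50%; inconclusive = above 50% but judged a plate artefact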;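 also: 50 nL library stock added to about 25 µL; numbers are from one replicate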
Mtb hypoxia inh growth = also measured in Mtb hypoxia inh; calls as there; growth inhibition, %; measured here: M. tuberculosis growth (absorbance);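 0% = vehicle and 100% = reference antibiotic; read after six days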
Starred values were filed as active, the others as inactive; ? = inconclusive; nt = not tested or not shown. Compounds as they come, and some 4.1% of all compounds hit somewhere here.

SMILES	Sa RN4220 lethal	Mtb hypoxia inh	Mtb hypoxia inh growth	Autofluor counter	ugtP null kill	PrP UTR inh	BJeLR viability
COc1c2c(nc3ccccc13)OC(C(C)(O)CO)C2 (configuration not stated)	7.3	10	7	7644	8	-30	-1
CC(C)NS(=O)(=O)c1ccc(NC(=S)NC(=O)c2ccc(-c3ccccc3)cc2)cc1	33	20	11	7937	10	nt	8
CCN(c1ccccc1)S(=O)(=O)c1cccc(C(=O)NCC(c2ccco2)N2CCCC2)c1 (configuration not stated)	-6.4	-7	-10	8419	-9	-2	6
COc1cc(C2CC=C(C(=O)O)CN2S(=O)(=O)c2ccc(C)cc2)cc(OC)c1OC (configuration not stated)	3.5	1	9	nt	7	nt	nt
CCOC(=O)C1=C(N)Oc2cc(C)oc(=O)c2C12C(=O)N1c3c(cccc32)C(C)=CC1(C)C (configuration not stated)	2.7	3	-2	21518*	-3	-18	8
CCCCN(C)C(=O)c1cn(C)c2ccc(S(=O)(=O)N(C)C)cc2c1=O	2.5	nt	nt	4259	1	-17	-10
CCCCCOc1ccc(NC(=O)C(=O)NCCC2=CCCCC2)cc1	-4.6	-1	8	?	-2	-4	-1
CN(CC(=O)Nc1cc(Cl)cc(Cl)c1)Cc1cccs1	-6.4	19	9	3073	-21	-32	-12
CC1CN(C(=O)COC(=O)c2cccc(NS(=O)(=O)c3ccccc3)c2)CC(C)O1 (configuration not stated)	1.8	9	2	4847	10	7	-4
O=C(c1ccc(Cl)c(S(=O)(=O)N2CCOCC2)c1)N(Cc1nnc(-c2ccccc2Cl)o1)C1CC1	3.2	-2	-1	?	1	2	2
CN1CCN(c2nc(-c3cc4ccccc4o3)cs2)CC1	-0.5	0	1	2634	11	-26	4
CCN(CC)S(=O)(=O)N1CCC(C(=O)NCc2ccc3c(c2)OCO3)CC1	3.5	3	1	2164	4	-19	13
CCC1Oc2ccccc2N(CC(=O)NCCC2=CCCCC2)C1=O (configuration not stated)	5.2	5	9	8028	-11	-22	1
CCCN=C1N(CC)C[C@@H]2[C@@H]3C(=O)N(Cc4ccccc4)C(=O)[C@@H]3[C@](Cc3ccccc3)(C(=O)OC)N12	3.7	-3	8	3472	2	-30	nt
C/C(=N/OC(=O)C1CC1)c1cc(-c2ccc(Cl)cc2)no1	nt	nt	nt	3354	nt	-79	16
CC1CCCC(C)N1C(=O)c1ccc(CS(=O)(=O)c2ccccc2)cc1 (configuration not stated)	1.0	0	9	5901	1	-13	2
CCN1/C(=c2/s/c(=C3/C(=O)N(c4ccccc4)N=C3C)n(CC)c2=O)C=Cc2ccccc21	nt	nt	nt	4975	nt	-30	-7
O=C(COC(=O)c1ccccc1C(=O)c1ccc(Cl)cc1)NCCc1ccccc1	1.6	1	13	2363	6	0	3
C[C@H](NC(=O)c1nc[nH]c1C(=O)N[C@@H](C)c1ccccc1)C(=O)OC(C)(C)C	nt	nt	nt	3347	nt	-9	10
COc1cc(OC)cc(C(=O)N[C@H](C(=O)Nc2nc(-c3ccc(OC)c(OC)c3)cs2)C(C)C)c1	3.9	0	2	5525	0	-11	-1
O=C(O)C1=NN(c2ccccc2)C(=O)CC1	5.8	-7	2	3742	16	-47	-5
COC(=O)[C@H](Cc1ccccc1)NC(=O)NCC1CCCO1 (some centres not stated)	5.1	15	9	11188	7	-12	-9
CCCCCCC(=O)N/N=C/Cc1ccccc1	nt	nt	nt	3457	nt	-31	-3
O=C(CSc1ncccn1)N/N=C/c1cccc(OC2CSC2)c1	nt	nt	nt	4351	nt	-18	16
Cc1ccc(NC(=O)C2CCN(C(=O)c3ccco3)CC2)cc1	-0.1	-6	-2	5600	12	-11	-6
(continued)
SMILES	Sa RN4220 lethal	Mtb hypoxia inh	Mtb hypoxia inh growth	Autofluor counter	ugtP null kill	PrP UTR inh	BJeLR viability
CN1CCc2c(sc3c2C(=O)NC(c2ccccn2)N3)C1 (configuration not stated)	2.5	4	9	5953	1	-3	-5
CN1C(=S)SC(/[N+]([O-])=C/c2c(F)cccc2Cl)C1(C)C (configuration not stated)	5.1	14	12	4035	10	nt	-1
Cc1ccc(C2=NN(C(=O)C3CCCO3)C(c3ccco3)C2)cc1 (configuration not stated)	5.7	1	5	4055	8	-30	-9
O=C(Cn1cc(C(F)(F)F)ccc1=O)NN=Cc1cccc(Cl)c1Cl	1.6	18	1	nt	-1	nt	nt
CCOC(=O)C1=C(COC(=O)CNC(=O)c2cc(OC)c(OC)c(OC)c2)NC(=O)NC1C (configuration not stated)	1.1	-7	12	nt	0	-4	8
CCc1nc2ccc(C(=O)N3CCN(c4ccccc4)CC3)cc2nc1CC	3.3	10	2	5385	0	-3	-4
Cc1cccc(C)c1NC(=O)CN(C)C(=O)CN1C(=O)NC(C)(C)C1=O	-0.7	6	4	3973	4	-27	nt
CCCCOc1c(Br)cc(/C=C2\N=C(C)OC2=O)cc1OCC	3.4	10	6	8204	10	-25	5
Cc1ccccc1NC(=O)c1sc(NC(=O)COc2ccccc2)c(C#N)c1C	7.2	16	1	2043	10	-17	14
O=C(CN1CCOCC1)NC1CC2CCC1C2 (configuration not stated)	2.5	5	8	?	6	-18	1
CC(=O)Nc1ccc(N(C(=O)c2ccco2)C(C(=O)NC2CCCC2)c2ccc(N(C)C)cc2)cc1 (configuration not stated)	1.6	13	4	3528	-2	-26	-10
O=C(Cn1c2ccc(F)cc2c2nc3n(c(=O)c21)CCS3)N1CCCC1	5.1	7	-10	4775	5	3	-5
O=C(NN1C(=O)c2cc(Br)ccc2NC1c1cc(Br)cc(Br)c1O)c1ccncc1 (configuration not stated)	-11	10	11	2193	4	-10	3
COc1ccc(C(=O)OCC(=O)NC2CCCCCC2)cc1OC	2.1	-8	-5	6723	6	-14	nt
OCCCn1c(-c2ccccc2)csc1=Nc1ccccc1	7.8	6	7	4027	-5	-12	-4
COC(=O)c1cc2n(n1)CCN(Cc1ccc(C)cc1)C2=O	1.0	nt	nt	2160	4	50	-5
Cc1cccc(Cn2nc(-n3cccc3)c3c(C)cc(C)nc32)c1	-7.9	-3	1	4571	17	-13	6
Cc1csc(=NN=Cc2cccc([N+](=O)[O-])c2)n1Cc1ccco1	-0.6	1	5	nt	14	nt	nt
CC(C)CC(=O)NC(=S)Nc1cccc2nsnc12	nt	nt	nt	4703	nt	8	0
CN(CC(=O)Nc1ccccc1C(=O)NC1CC1)Cc1ccc(Cl)s1	-1.8	15	8	3878	-2	-15	nt
O=C(CCC1CCCCC1)Nc1ccc(C(=O)c2ccncc2)cc1	-4.6	14	1	3367	-16	35	2
Cc1ccc(C(=O)NC(=S)N2CCN(c3ccccc3F)CC2)cc1	3.3	7	1	10476	3	-3	-2
Cc1cc(NC(=O)CCNS(=O)(=O)c2ccc3[nH]c(=O)oc3c2)ccc1Br	-5.0	2	-9	6401	-14	-11	-3
CCCOc1ccc(-c2c(C(=O)N/N=C/c3ccc(C)o3)nnn2-c2nonc2N)cc1	nt	nt	nt	5660	nt	-16	-6
c1ccc(OCCCCN2CCOCC2)cc1	4.5	7	2	16576*	7	-13	2
(further entries)
SMILES	Sa RN4220 lethal	Mtb hypoxia inh	Mtb hypoxia inh growth	Autofluor counter	ugtP null kill	PrP UTR inh	BJeLR viability
O=C(NC1CCCC1)C(c1cccnc1)N(C(=O)c1ccco1)c1cccc(F)c1 (configuration not stated)	2.7	-10	-14	3815	7	-10	-4
O=C(COC(=O)c1ccc(Cl)nc1)Nc1cccc(S(=O)(=O)N2CCCCC2)c1	-2.2	5	6	2893	-1	-4	nt
NC(=S)NN=Cc1coc2cc(Br)ccc2c1=O	4.3	11	-12	nt	-4	nt	nt
CC(=O)Nc1ccc(S(=O)(=O)N2CCC(c3nc4ccccc4[nH]3)CC2)cc1	0.9	6	10	9531	10	-3	10
CN(C)C(CNC(=O)c1cnc(Cl)c(Cl)c1)c1ccccc1 (configuration not stated)	2.2	-5	15	4095	1	-29	2
Cc1c(NC(=O)C(Sc2ccccc2)c2ccccc2)cccc1[N+](=O)[O-] (configuration not stated)	-5.9	nt	nt	4540	1	-16	-2
COCCn1c(N)c(Sc2ccc(C)cc2)c(=O)[nH]c1=O	0.5	5	8	5210	8	-13	-8
Cc1cccc(N(CC(=O)N2CCN(c3ccccc3F)CC2)S(C)(=O)=O)c1	-0.1	14	13	4656	2	-23	2
C/C(=N\NC(=O)c1ccc(Cl)cc1)c1cccs1	nt	nt	nt	4558	nt	-87	4
CC1=Nc2ccc(Br)cc2C(c2ccccc2)N1CC(=O)NN (configuration not stated)	-2.1	-8	15	4155	-17	-45	2
COCCn1c(SCC(=O)Nc2ccc(F)cc2)nc2ccccc2c1=O	2.4	11	9	3540	7	-14	4
CN(C)S(=O)(=O)N1CCC(Oc2cccc(C(=O)N3CCSCC3)c2)CC1	3.2	-2	1	5722	9	-7	0
N#C/C(=C\c1c(Oc2ccccc2F)nc2ccccn2c1=O)C(=O)NC1CCS(=O)(=O)C1 (configuration not stated)	2.6	0	-7	4020	1	-15	-10
O=C(NS(=O)(=O)Oc1ccc(F)c(Cl)c1)OC[C@@H]1CCCN2CCCCC12 (some centres not stated)	2.3	-3	13	4820	0	-28	2
CC(C)CCNC(=O)CN(C(=O)CCC(=O)Nc1ccccn1)c1ccc2c(c1)OCCO2	3.1	2	0	8285	-4	-6	8
O=C(COC(=O)C12CC3CC(CC(Br)(C3)C1)C2)NNC(=O)c1ccccc1	3.0	10	-1	3395	2	-12	nt
C/C(=N\NC(=O)CN(c1ccccc1Br)S(C)(=O)=O)c1cccs1	nt	nt	nt	4190	nt	-5	-2
COC(F)(C(=O)Nc1ccc2c(c1)C(=O)NC2=O)C(F)(F)F (configuration not stated)	5.9	11	2	22859*	3	-13	-1
CC(=O)c1cccc(NC(=O)CCn2c(=O)oc3ccccc32)c1	3.6	14	8	4635	-3	-23	0
C=C1CCN(c2ccc(C(=O)NCc3ccc(C)cc3)cc2[N+](=O)[O-])CC1	-4.6	8	10	3804	-6	-16	-6
C#Cc1ccc(C2C=C(C(=O)Nc3ccccc3)OC(OCc3ccc(CO)cc3)C2)cc1 (configuration not stated)	3.4	0	-1	nt	5	nt	nt
COc1cc(NC(=O)Nc2ccccc2)c(OC)cc1NC(=O)CN1CCCCC1	4.0	6	5	2968	4	5	-2
O=c1c2c3c(sc2ncn1N=Cc1cccnc1)CCCC3	7.7	8	7	nt	7	nt	nt
CC(=O)Nc1ccc(N2C(=O)CSC2c2c(F)cccc2Cl)cc1 (configuration not stated)	3.9	0	18	9183	-4	-3	-2
O=C(c1ccc(Cl)c([N+](=O)[O-])c1)N(Cc1cccc(Cl)c1)C1CCS(=O)(=O)C1 (configuration not stated)	2.8	-2	-2	2153	0	-16	6

The list goes on (6 carried over from the part before).
SMILES	Sa RN4220 lethal	Mtb hypoxia inh	Mtb hypoxia inh growth	Autofluor counter	ugtP null kill	PrP UTR inh	BJeLR viability
C=C1CCN(c2ccc(C(=O)NCc3ccc(C)cc3)cc2[N+](=O)[O-])CC1	-4.6	8	10	3804	-6	-16	-6
C#Cc1ccc(C2C=C(C(=O)Nc3ccccc3)OC(OCc3ccc(CO)cc3)C2)cc1 (configuration not stated)	3.4	0	-1	nt	5	nt	nt
COc1cc(NC(=O)Nc2ccccc2)c(OC)cc1NC(=O)CN1CCCCC1	4.0	6	5	2968	4	5	-2
O=c1c2c3c(sc2ncn1N=Cc1cccnc1)CCCC3	7.7	8	7	nt	7	nt	nt
CC(=O)Nc1ccc(N2C(=O)CSC2c2c(F)cccc2Cl)cc1 (configuration not stated)	3.9	0	18	9183	-4	-3	-2
O=C(c1ccc(Cl)c([N+](=O)[O-])c1)N(Cc1cccc(Cl)c1)C1CCS(=O)(=O)C1 (configuration not stated)	2.8	-2	-2	2153	0	-16	6
CCN(CC)CCn1c(NCc2ccccn2)nc2ccccc21	1.3	5	5	11556	0	2	7
O=C(NCCCN1CCOCC1)c1cccc(S(=O)(=O)N2CCOCC2)c1	3.1	-6	1	8946	2	-13	nt
CCC(=O)Nc1ccc(-c2nnc(SCC(=O)Nc3nccs3)n2C)cc1	2.5	7	0	19859*	3	-25	-9
COc1ccc(C(=O)NC(=S)Nc2cccnc2)cc1[N+](=O)[O-]	2.6	6	6	2524	10	-17	1
COc1ccccc1Nc1nc(C)cc(=O)[nH]1	0.9	-1	3	5704	-7	-43	-14
CC(C)C(C(=O)NCC1CCCO1)N(C(=O)CNS(=O)(=O)c1ccc(F)cc1)c1ccccc1 (configuration not stated)	4.1	11	3	3734	1	-12	0
